Screening data (PubChem)
miR-21 reporter: miR-21 reporter, rising signal | HeLa miR-21 FLuc reporter, luciferase, 48 h | Potency, µM (top dose mostly 38.3 µM), for inactives: at the highest dose reporter change, positive = more light | 340,000 tested, under 10 active | AID 2288; active = well fitted rising curve with a large enough effect; inconclusive = small, poorly fitted or top-dose-only effect; inactive = no such curve, though single readings can be large or run the other way;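 note: % of control where 0% means no effect; miR-21 action dims this reporter so a rising signal means less miR-21 action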
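Luminescence from a firefly luciferase reporter carrying a miR-21 binding site downstream, stably expressed under a CMV promoter in HeLa cells that make miR-21 endogenously, reports miRNA modulation after 48 h compound exposure up to approximately 40uM final.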
GLA inh pH 4.5: alpha-galactosidase A (human) inhibition, pH 4.5 | purified enzyme, 4-MU-alpha-Gal fluorescence, pH 4.5 | activity change, negative = inhibition, % at 105 µM | 230,000 tested, under 10 active | AID 1467; inconclusive = small, poorly fitted or top-dose-only inhibition, or a rising curve; inactive = flat fitted curve, though single readings scatter; no compound was filed as active;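 note: 0% = full activity with enzyme and -100% = basal without enzyme; dose as in the result columns while the protocol names 77 µM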
Rango dissoc inh: inhibitors of RanGTP-induced Rango-importin beta complex dissociation | actives 0.071% (n = 340,000) | Potency, µM (series often up to 46.1 µM), inactives show at the highest dose activity change, negative = inhibition | Biochemical FRET Rango-importin beta, RanGTP-induced dissociation; active means falling FRET ratio curve, often poorly fitted, with flat reads before Ran was added; inconclusive means other falling curves, or compound fluorescence or quenching; inactive means flat or rising ratio curve;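 note: potency is the fitted concentration of half-maximal effect; % of control where 0% means no effect; nearly all actives have a fitted effect of over 45% in size; -100% = wells without RanGTP and RCC1; the record marks most hits as doubtful in a second field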
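Quantitative HTS using a FRET biosensor: 0.1 uM Rango, 0.25 uM importin beta, 0.6 uM Ran, 2 mM GTP, 0.2 uM RCC1 final, PBS with DTT, Tween-20 and BSA. Post-read taken 45 min after Ran addition.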
Rango complex inh: Rango-importin beta binding inhibition; Q14974; Rango CFP/YFP FRET sensor + importin beta, 45 min; Potency, µM (highest dose often 92.2 µM), inactives show top-dose inhibition of complex formation; actives 0.031% (n = 340,000); AID 540263; active = rising FRET ratio curve, often small or poorly fitted; inconclusive = mostly compound fluorescence or quenching in the first reads; inactive = flat curves in all reads;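 note: potency is the fitted concentration of half-maximal effect; 0% = DMSO wells and 100% = buffer wells lacking importin beta; nearly all actives have a fitted effect of over 15% in size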
Target sequence (Q14974 whole entry, looked up): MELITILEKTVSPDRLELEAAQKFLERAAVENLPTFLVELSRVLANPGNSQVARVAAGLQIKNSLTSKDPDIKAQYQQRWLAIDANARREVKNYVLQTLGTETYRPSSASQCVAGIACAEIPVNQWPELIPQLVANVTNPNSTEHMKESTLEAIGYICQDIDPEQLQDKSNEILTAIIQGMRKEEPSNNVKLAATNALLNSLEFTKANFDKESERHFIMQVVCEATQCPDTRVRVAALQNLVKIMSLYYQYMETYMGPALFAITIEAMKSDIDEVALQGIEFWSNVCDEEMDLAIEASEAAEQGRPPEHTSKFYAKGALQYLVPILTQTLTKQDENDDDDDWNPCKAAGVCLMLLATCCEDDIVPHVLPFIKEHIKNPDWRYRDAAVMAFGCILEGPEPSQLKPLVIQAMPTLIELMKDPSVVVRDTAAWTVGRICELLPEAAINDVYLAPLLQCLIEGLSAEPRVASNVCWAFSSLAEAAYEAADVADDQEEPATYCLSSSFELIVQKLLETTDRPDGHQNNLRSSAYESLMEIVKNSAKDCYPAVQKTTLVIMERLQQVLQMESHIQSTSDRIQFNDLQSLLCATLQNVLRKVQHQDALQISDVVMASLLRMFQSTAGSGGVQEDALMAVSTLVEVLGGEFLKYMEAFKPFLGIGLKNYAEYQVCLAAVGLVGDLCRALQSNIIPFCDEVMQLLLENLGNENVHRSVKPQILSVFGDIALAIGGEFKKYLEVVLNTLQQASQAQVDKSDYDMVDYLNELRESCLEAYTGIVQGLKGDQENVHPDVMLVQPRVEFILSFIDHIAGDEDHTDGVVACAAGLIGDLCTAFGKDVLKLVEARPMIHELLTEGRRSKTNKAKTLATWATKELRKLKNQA
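FRET biosensor Rango (snurportin 1 IBB between N-terminal EYFP and C-terminal Cerulean), 50 nM in PBS/1 mM DTT/0.02% Tween-20/0.1% BSA, preincubated 5 min RT with compound; 0.125 microM importin beta added, 45 min RT, CFP/YFP FRET ratio read.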
Numbers without * were called inactive; ? = inconclusive; . = not tested or not shown; & = joins results of further samples. Some of the compounds tested. The share of hits here may be higher or lower than overall.

Rango dissoc inh | SMILES | GLA inh pH 4.5 | Rango complex inh | miR-21 reporter
2% | CCOc1ccc(/C=C(/NC(=O)c2ccccc2)C(=O)NCCC(=O)O)cc1 | 3 | 3.7% | 0%
2% | CCOC(=O)c1c(CSc2ccccc2)n(C)c2ccc(O)cc12 | . | -2.6% | -4%
-10% | COc1[nH]c(/N=C/c2ccccc2)c(C#N)c1C#N | 0 | ? | 1%
5% | C=C1CCN([C@@H](Cc2ccccc2)C(=O)N2CCOCC2)S(=O)(=O)c2ccccc21 | . | 3.2% | .
3% | CS(=O)(=O)Nc1ccc(S(=O)(=O)N2CCOCC2)cc1 | 7 | 1.3% | 0%
10% | COc1ccc(C(CNC(=O)c2ccc3c(c2)OCCO3)N(C)C)cc1 (centres undefined) | . | -2.9% | -13%
-5% | Cc1noc(NS(=O)(=O)c2ccc(NC(=O)c3nn(-c4ccc(F)cc4)ccc3=O)cc2)c1C | . | -1.4% | -1%
0% | Cc1oc2c(c(C)cc3oc(=O)c(CC(=O)NCC(=O)NCC(=O)NCC(C)O)c(C)c32)c1C (centres undefined) | . | -2.7% | 0%
5% | CCOc1cccc(NC(=O)C(Cc2cccs2)c2nn[nH]n2)c1 (centres undefined) | -4 | 1.7% | -8%
-2% | CSCC[C@@H](C(=O)NCCCCCCCCCCC(=O)N1CCN(C(=O)OC(C)(C)C)CC1)n1cc(CCO)nn1 | . | 6.0% | .
0% | Cc1cccc(-n2ncc3c2CCCC3NC(=O)CCc2cccnc2)c1C (centres undefined) | . | -5.5% | 10%
1% | COc1cc(/C=C/C(=O)OCC(=O)N2CCCc3ccccc32)ccc1OC(F)F | . | -2.0% | .
6% | Cc1cc(-c2ccc(S(=O)(=O)N3CCN(c4cccc(C)c4C)CC3)s2)on1 | . | -0.6% | 1%
? | Cc1ccc(NC(=O)Cn2ncn3c(cc4ccccc43)c2=O)cc1F | . | -0.3% | -1%&-8%
5% | O=C(NNC(=S)NCC1CCCO1)c1ccc(S(=O)(=O)N2CCOCC2)cc1 (centres undefined) | 3 | -1.8% | 0%
8% | COc1ccc(CNC(=O)C/C(C)=N/NC(=O)COc2cccc(C)c2)cc1 | -3 | 0.9% | 1%
15% | COc1ccc(-n2c(-c3ccc(Br)cc3)c[n+]3c2SC(C)C3)cc1 (centres undefined) | -4 | -1.5% | ?
-9% | CCOC(=O)c1cc(-c2ccccc2)n(CCC(=O)NC(C)CC)c1C (centres undefined) | -11 | 0.4% | -18%
-17% | Cc1ccc2cc(COC(=O)c3cccc([N+](=O)[O-])c3)c(=O)[nH]c2c1 | -4 | -0.5% | -4%
-18% | CCOC(=O)c1[nH]c2ccccc2c1NC(=S)Nc1cccc(C)c1C | -2 | 0.9% | -41%
-11% | O=C(Nc1ccc(F)c(Cl)c1)C1CCN(c2ncnc3c2nc2n3CCCCC2)CC1 | . | -3.3% | -5%
-13% | CCOc1cc(/C=N/NC(=O)COc2ccc(Cl)cc2)ccc1OS(=O)(=O)c1ccccc1 | 0 | -0.1% | 22%
-1% | O=C(COc1ccccc1)NC1CCS(=O)(=O)C1 (centres undefined) | 3 | 0.3% | 1%
-23% | COc1ccc(CNC(=O)C2CCCN(S(=O)(=O)c3c(C)nn(C)c3C)C2)cc1 (centres undefined) | -1 | -4.6% | -7%
-10% | O=C(Nc1ccccc1)OCCOc1cccc(Br)c1 | . | -4.6% | -20%

Next section (4 carried over from the part before).
Rango dissoc inh | SMILES | GLA inh pH 4.5 | Rango complex inh | miR-21 reporter
-13% | CCOc1cc(/C=N/NC(=O)COc2ccc(Cl)cc2)ccc1OS(=O)(=O)c1ccccc1 | 0 | -0.1% | 22%
-1% | O=C(COc1ccccc1)NC1CCS(=O)(=O)C1 (centres undefined) | 3 | 0.3% | 1%
-23% | COc1ccc(CNC(=O)C2CCCN(S(=O)(=O)c3c(C)nn(C)c3C)C2)cc1 (centres undefined) | -1 | -4.6% | -7%
-10% | O=C(Nc1ccccc1)OCCOc1cccc(Br)c1 | . | -4.6% | -20%
0% | O=C(C1CCCN(Cc2ccc(Cl)cc2)C1)N1CCCCC1 (centres undefined) | . | -3.7% | -1%
-24% | Cc1ccc(-n2[nH]c(C)c(/C=N/NC(=O)c3ccc(O)cc3O)c2=O)cc1 | . | ? | -5%
? | Cc1nc(C)c(-c2ccc(SCC(=O)Nc3ccc(F)cc3F)nn2)s1 | . | -0.4% | 11%
15% | Cc1ccc(S(=O)(=O)N2CCN(C(=O)CCN3C(=O)c4ccccc4C3=O)CC2)cc1C | 2 | 0.2% | 0%
5% | COc1ccc(Cl)cc1C(=O)NCCCN1CCOCC1 | . | -2.4% | -2%
-9% | COc1cccc(CN2CCN(Cc3ccc(C#CC(C)(C)O)s3)CC2CCO)c1 (centres undefined) | -4 | 0.1% | -1%
-10% | Nc1c(-c2ccccc2)cnc2c(-c3ccccc3)cnn12 | . | 0.5% | -73%
7% | COC(=O)C(C)Oc1ccc(=O)[nH]n1 (centres undefined) | 3 | 0.3% | -2%
-3% | Nc1nonc1C(=O)N/N=C/c1cccc([N+](=O)[O-])c1 | -4 | -4.8% | -1%
1% | COc1ccc(-c2[nH]ncc2CN2CCC(OCc3cccnc3)CC2)c(F)c1 | -1 | 3.3% | 3%
1% | COc1ccc(S(=O)(=O)N(C)c2ccc(C(=O)Nc3ccccc3C(=O)N3CCOCC3)cc2)cc1OC | . | ? | -8%
6% | CCn1nc(CC(C)C)cc1C(=O)N1CCCC(Nc2ccc(OC)cc2)C1 (centres undefined) | . | 2.2% | 3%
12% | CC(=O)NC(Cc1cnc[nH]1)C(=O)O (centres undefined) | 8 | 2.9% | -2%
-12% | Cc1cc(C)n(-c2ccc(C(=O)OCc3ccccc3)cc2)n1 | -1 | 0.0% | -27%
2% | COc1ccccc1N1CCN(C(=O)CCNS(=O)(=O)c2ccc(Br)s2)CC1 | -25 | -1.4% | 8%
-2% | Fc1ccc(Oc2nccc(-c3ccc(Cl)cc3)n2)cc1 | -15 | -1.6% | -22%
? | CCN(CC)c1ccc(/C=C/C(=O)c2ccc(Br)cc2)cc1 | -6 | ? | -11%
4% | Cc1nc(NS(=O)(=O)c2ccccc2)sc1NC(=O)Nc1ccccc1 | 8 | 1.8% | -2%
6% | CC(C)c1ccc(S(=O)(=O)N2CCN(CC(O)CN3CCOCC3)CC2)cc1 (centres undefined) | . | ? | .
-10% | COc1ccc(N(CC(=O)O)S(=O)(=O)c2c(C)n[nH]c2C)cc1 | 4 | -0.8% | 1%
-3% | CN1[C@@H]2CCC[C@H]1CC(NC(=O)c1nn(C)c3ccccc13)C2 (some centres undefined) | . | -1.7% | .
3% | O=C(CSc1ccc(Br)cc1)NCC1CCCO1 (centres undefined) | 1 | -10.0% | -16%
10% | O=C(CCN1C(=O)C2C3C=CC(C3)C2C1=O)N1CCN(c2ccc(F)cc2)CC1 (centres undefined) | -5 | -1.1% | 0%
15% | COc1cc(CNc2ncn[nH]2)ccc1OCc1ccccc1C | -2 | -2.8% | -59%
-3% | Cc1ccc(S(=O)(=O)N(CC(=O)N2CCOCC2)c2ccc(C(C)C)cc2)cc1 | . | 3.1% | -3%

Reprinted at random: three compounds from above, in no set order.
Rango dissoc inh | SMILES | GLA inh pH 4.5 | Rango complex inh | miR-21 reporter
2% | COc1ccccc1N1CCN(C(=O)CCNS(=O)(=O)c2ccc(Br)s2)CC1 | -25 | -1.4% | 8%
12% | CC(=O)NC(Cc1cnc[nH]1)C(=O)O (centres undefined) | 8 | 2.9% | -2%
-3% | CN1[C@@H]2CCC[C@H]1CC(NC(=O)c1nn(C)c3ccccc13)C2 (some centres undefined) | . | -1.7% | .

Next records:
Rango dissoc inh | SMILES | GLA inh pH 4.5 | Rango complex inh | miR-21 reporter
8% | CCN(CC)C(=O)C(C)N(C#N)c1nc(C)cc(C)n1 (centres undefined) | 4 | -1.3% | -1%
-1% | CC(=O)NC1CC2CCCC(C1)N2C(=O)Nc1ccccc1C (centres undefined) | . | -1.1% | .
13% | COc1ccc(C2CC(c3ccccc3)n3nnnc3N2)cc1 (centres undefined) | 0 | 1.0% | -9%
6% | COc1ccc(S(=O)(=O)N(C)CC(=O)NCc2ccco2)cc1OC | . | -1.2% | -3%
9% | CC(=O)N1c2ccc(S(=O)(=O)N3CCCC(C(=O)N4CCC(C)CC4)C3)cc2CC1C (centres undefined) | . | 0.8% | 14%
-21% | CCOC(=O)c1cc2cc(OCc3ccccc3)ccc2nc1C | . | -4.7% | -4%
1% | CCCOc1ccc(C2(C(=O)O)CCCC2)cc1 | -4 | -2.1% | -6%
? | OC(COCc1ccccc1F)CN1CCCCC1 (centres undefined) | . | 1.0% | .
5% | COCCN(C(=O)Cn1c(C(F)(F)F)nc2ccccc21)c1c(N)n(Cc2ccccc2)c(=O)[nH]c1=O | . | -3.9% | -4%
5% | O=C(CSc1cccc2cccnc12)N/N=C/c1cccc(O)c1 | -1 | 1.1% | 0%
1% | COc1ccc(C(C)(C)C)cc1S(=O)(=O)NCC1CCCO1 (centres undefined) | . | 3.3% | .
? | C/C(=C\c1ccco1)C1C(C#N)=C(N)OC2=C1C(=O)CC(C)(C)C2 (centres undefined) | -1 | ? | -7%
0% | Cc1ccc(C)c(Cn2cnc3c(oc4ccccc43)c2=O)c1 | 2 | 2.1% | -9%
-4% | N#CCC(=O)Nc1ccc(C(=O)OC(C(=O)Nc2cc(C(F)(F)F)ccc2Cl)c2ccccc2)cc1 (centres undefined) | . | -0.4% | .
-1% | COc1ccc(CNC(=O)CCC(=O)c2ccccc2)cc1 | . | 1.9% | .
-14% | CC(C)(C)[C@@H]1C=C(C(=O)N2CCN(Cc3ccccc3)CC2)O[C@H](OCc2ccc(CO)cc2)C1 | -4 | -0.1% | 12%
0% | CCN(c1ccccc1)S(=O)(=O)c1cc(NC(=O)CN2CCN(C)CC2)ccc1Cl | . | 2.9% | .
9% | N#CC1C(=O)NC(=O)C(C#N)C12CCCC(C(F)(F)F)C2 (centres undefined) | . | -2.5% | .
7% | C=CCNC(=S)N1CCN(CCN=CC2=C(O)CC(c3cccs3)CC2=O)CC1 (centres undefined) | 0 | 0.7% | 0%
12% | COc1ccc(-c2occ(C(=O)O)c2C(=O)O)cc1 | 1 | 0.6% | -8%
0% | O=C(N/C(=C/c1ccc(Cl)cc1)c1nc2ccccc2[nH]1)c1ccco1 | 8 | -1.8% | -7%
-7% | CCOC(=O)c1ccccc1NC1OC(=O)c2ccccc21 (centres undefined) | -5 | 2.6% | -1%
-10% | N#Cc1cnc2c(-c3ccccc3)c(-c3ccccc3)nn2c1N | 2 | -2.9% | -1%
-5% | CSCCC(NS(=O)(=O)c1ccc2c(c1)oc(=O)n2C)C(=O)NC1CCN(Cc2ccccc2)CC1 (centres undefined) | -5 | 6.1% | -1%
-9% | CC(C)CC(=O)Nc1ccc(OCC(=O)O)cc1 | 5 | 1.8% | 0%

Additional compounds
Rango dissoc inh | SMILES | GLA inh pH 4.5 | Rango complex inh | miR-21 reporter
-3% | COc1ccc(NC(=O)CSc2nnc3ccc(-c4cccnc4)nn23)cc1 | . | 0.5% | .
4% | COc1ccc(OC)c(CNC(=O)CCC(=O)N2Cc3cccc(OC)c3Oc3ncccc32)c1 | . | -6.7% | 0%
-15% | O=C(O/N=C/C1=C(Cl)c2ccccc2CC1)c1ccc(F)cc1 | 12 | 0.9% | -4%
5% | CNS(=O)(=O)c1cc(N(C)S(=O)(=O)c2ccc(C)cc2)c(C)cc1C | -3 | -1.8% | 5%
-19% | COc1ccc(S(=O)(=O)N(C)C)cc1NC(=O)CSc1nncs1 | 13 | -0.3% | 4%
7% | Cc1ccc(-n2[nH]c3c4c(ccc3c2=O)C(=O)c2ccccc2C4=O)cc1 | -9 | 4.9% | 0%
1% | CCc1ccc(Nc2nc(N)nc(CSc3nnnn3-c3ccccc3)n2)cc1 | -5 | 0.4% | -9%
-26% | COc1cccc(Nc2nc(-c3sc(NC(=O)c4ccco4)nc3C)cs2)c1 | 2 | ? | 12%
